From PubChem
Mtb betalactam: beta-lactam sensitization of Mtb H37Rv; hit rate 0.27% among 330,000; inhibition, % at 25 µM; AID 434955; M. tuberculosis H37Rv growth with meropenem, percent inhibition; hits of this screen are not shown here;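 active = about 74% or more and at least 40 points above the plate without the antibiotic, then above 30% in a dose series; inconclusive = first-round hits that could not be retested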;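 also: growth measured after seven days incubation then overnight dye step; 0% = bacteria only wells and 100% = bacteria with antibiotic; twin plates without the antibiotic show which effects depend on it; some results filed as inactive read as strong as hits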
Starred values were filed as active, the others as inactive; ? = inconclusive.

SMILES	Mtb betalactam
CSc1ccc(S(=O)(=O)N2CCC(C(=O)NCC3CCCO3)CC2)cc1 (stereo not drawn)	-1.8
O=C(CSc1nnc(-c2ccc(O)cc2)o1)Nc1ccccc1	2.7
C1=CC(Cc2cncs2)c2ccccc21 (stereo not drawn)	0.1
CCC(C)(C)C1CCc2[nH]nc(C(=O)NCC3CC3)c2C1 (stereo not drawn)	-9.6
CCN(CC)c1ccc(S(=O)(=O)N2CCOCC2)cc1NC(=O)C1CC1	1.6
CN1C(=O)N(CC(=O)N2CCN(c3ccccc3F)CC2)C(=O)C12CCCCC2	-2.9
CN(CC(=O)Nc1c(Cl)cccc1Cl)C(=O)C1CC(=O)N(Cc2ccccc2)C1 (stereo not drawn)	-10.6
Cc1c(C(=O)N2CCCC(C(F)(F)F)C2)oc2ccccc12 (stereo not drawn)	-2.8
CC1(C)O[C@H]2CC(=O)OC[C@]23[C@H]2CC[C@@]4(C)[C@H](c5ccoc5)OC(=O)[C@H]5O[C@]54[C@]2(C)[C@@H](O)C[C@@H]13	-5.5
Cc1cccc(CNc2ncnc3ccc(-c4ccc5c(c4)OCCO5)cc23)c1	98.5
Cc1ccc(NC(=O)CN(C)C(=O)COC(=O)c2nccnc2N)cc1	-5.7
O=C(CN1CCN(CN2C(=O)NC3(CCCCCC3)C2=O)CC1)Nc1ccc(F)cc1	0.1
CCN(CC(=O)Nc1ccc(NC(C)=O)cc1)Cc1c(O)ccc2cc(Br)ccc12	13.1
CC(=O)c1ccc(S(=O)(=O)N2CCN(C(=O)c3ccc(-n4nc(C)c(Cl)c4C)cc3)CC2)cc1	-4.3
Cc1cccc(NC(=O)CCCC(=O)OC(C)C(=O)c2ccccc2)c1 (stereo not drawn)	3.2
C[C@H]1CN([C@@H](C)CO)C(=O)c2cccc(NC(=O)C3CC3)c2O[C@H]1CN(C)Cc1ccc(-c2ccccc2)cc1	-10.5
O=C(CSc1nc2ccccc2[nH]1)Nc1ccc2[nH]c(=O)[nH]c2c1	3.2
CC(C)c1ccc(CCNC(=O)CCNS(=O)(=O)c2ccc(Br)cc2)cc1	-7.4
CC[C@@H]1CCCCc2ccccc2[C@@H](C(=O)C[C@@H](O)CC(C)=O)OC1=O	-3.9
CCCc1cc(=O)[nH]c(SCC(=O)Nc2cc(S(=O)(=O)N3CCOCC3)ccc2Cl)n1	-4.5
Cc1cc(C(=O)CN2C(=O)C(=O)N(Cc3ccccc3)C2=O)c(C)n1Cc1ccccc1	48.7
O=C(N/C(=C\c1ccc([N+](=O)[O-])cc1)C(=O)N1CCCCC1)c1ccco1	-8.8
COC(=O)c1sc(N)c(C(=O)OC)c1COC(=O)C12CC3CC(CC(O)(C3)C1)C2	1.9
O=C(c1ccc(Cl)c(S(=O)(=O)N2CCCCCC2)c1)N1CCN(c2ccc(O)cc2)CC1	2.9
CCOC(=O)c1ccc(NC(=S)NCc2ccccc2)cc1	37.6
CCN(CC(=O)Nc1ccc2c(c1)OCCO2)CC(=O)Nc1ccccc1C(F)(F)F	-1.1
Cc1cccc(C(=O)Nc2cccnc2Cl)c1	-14.2
Cc1ccc(S(=O)(=O)CCC(=O)OCC(=O)NC(C)c2ccc(F)cc2)cc1 (stereo not drawn)	-5.0
O=C(NC1CCCCC1)c1ccc([N+](=O)[O-])o1	98.8
Cc1c(NC(=O)c2cc(Br)ccc2Cl)cccc1-n1cnnn1	0.6
COc1cc(F)cc(-c2ccc3c(c2)c(C#Cc2ccsc2)c(-c2cc(OC)cc(OC)c2)n3C)c1	-10.4
NS(=O)(=O)c1ccc(NC(=O)COC(=O)CSCc2ccc(F)cc2)cc1	-6.6
COc1ccc(CC(=O)Nc2cccc(S(=O)(=O)N3CCCC3)c2)cc1OC	-4.4
CCC1CCCCN1C(=O)COC(=O)c1ccc(Br)o1 (stereo not drawn)	6.3
COc1cccc(/C=C/C(=O)OCC(=O)N(C)CC(=O)Nc2ccccc2Cl)c1OC	-5.1
C=C[C@@H](C)N(Cc1ccc(OC)cc1)S(=O)(=O)N(Cc1ccccc1)[C@H](C=C)C(C)C	1.6
O=C(Nc1ccc(F)cc1)Nc1nnc(Cc2ccccc2F)s1	-7.6
O=C(NN1C(=O)NC2(CCCCC2)C1=O)c1ccc(Cl)c(Cl)c1	-1.0
C=CCn1c(SCC(=O)Nc2c(C)n(C)n(-c3ccccc3)c2=O)nnc1-c1cccnc1	2.2
CC(C)c1ccc(/C=N/NC(=O)CCNC(=O)c2ccccc2)cc1	3.5

3 entries drawn at random from the list so far:
SMILES	Mtb betalactam
COc1ccc(CC(=O)Nc2cccc(S(=O)(=O)N3CCCC3)c2)cc1OC	-4.4
O=C(NN1C(=O)NC2(CCCCC2)C1=O)c1ccc(Cl)c(Cl)c1	-1.0
O=C(Nc1ccc(F)cc1)Nc1nnc(Cc2ccccc2F)s1	-7.6

Additional structures:
SMILES	Mtb betalactam
O=C(CSc1ccc([N+](=O)[O-])cc1)Nc1cccc(S(=O)(=O)N2CCOCC2)c1	5.7
COC(=O)C1=C(c2cccc(C#N)c2)C[C@@H]2CC[C@H]1N2C(=O)NCc1ccco1	-3.6
CCn1c(CNC(=O)c2ccc3c(c2)OCO3)nnc1SCC(=O)Nc1ccccc1F	0.0
CCCCCCCN1C(Nc2ccccc2)=NC[C@@H]1C	-4.5
O=C(O)c1cccc([N+](=O)[O-])c1C(=O)Nc1ccc2ccccc2c1	-14.5
Cc1cnc(C(=O)OCC(=O)Nc2ccc3c(c2)OCCO3)cn1	-2.4
CCOc1ccccc1N1CC(C(=O)N2CCN(Cc3ccc(C#N)cc3)CC2)CC1=O (stereo not drawn)	0.1
O=C1CN(C(=O)COC(=O)c2ccc(C(F)(F)F)cc2)c2ccccc2N1	-2.8
O=C(Cn1ncc(Cl)c(Cl)c1=O)NC1CCCCC1	86.8
CN(Cc1ccccc1)C(=O)COC(=O)c1cc2ccccc2oc1=O	15.2
Cc1cnc(NC(=O)c2cccc(S(=O)(=O)N3CCOCC3)c2)s1	-8.2
CCOC(=O)c1ccc(N2C(=O)C3CCOc4ccccc4C32)cc1 (stereo not drawn)	-2.7
Cc1c(C(=O)NCC(c2ccco2)N2CCCC2)sc2ccccc12 (stereo not drawn)	-8.1
Cc1cc(C)c(NC(=O)Nc2ccccc2)c(C)n1	9.4
O=C(COC(=O)c1ccc([N+](=O)[O-])o1)NCc1ccc(F)cc1	66.7
COc1ccc(NC(=O)CN2C(=O)NC(C)(C3CCCCC3)C2=O)c(OC)c1 (stereo not drawn)	-10.2
COc1cccc(/C=C/C(=O)OCC(=O)N2CCCC2)c1OC	-9.3
O=C1C=C(c2cc3ccccc3s2)C[C@@H](c2ccc(F)cc2)C1	9.3
O=C(CN1C(=O)NC2(CCc3ccccc32)C1=O)c1ccc(Br)cc1 (stereo not drawn)	-8.0
O=c1[nH]c(=O)n([C@H]2C[C@H](O)[C@@H](CO)O2)cc1I	-6.5
O=C1CN(C(=O)NCC(=O)N[C@@H](Cc2ccccc2)C(=O)O)c2ccccc2N1	-1.3
COc1cc([C@@H]2CC=C(C(=O)O)[C@H](c3ccccc3)N2S(=O)(=O)c2ccc(C)cc2)cc(OC)c1OC	-3.8
O=C(NC1CCCC1)c1cc2c(=O)n3ccccc3nc2s1	-12.7
O=C(COC(=O)CCN=C1NS(=O)(=O)c2ccccc21)NNC(=O)c1ccc(Cl)cc1	-11.3
CN(Cc1cccc(F)c1)C(=O)CN1CCN(S(=O)(=O)c2ccc3c(c2)OCCCO3)CC1	2.6
CCc1cccc(CC)c1-n1c(SCC(=O)N2CCc3ccccc32)nc(O)cc1=O	-5.3
Cc1ccc(N(C)S(=O)(=O)c2cccc(C(=O)NCCCN3CCCC3=O)c2)cc1	13.3
Cc1ccc(S(=O)(=O)NCC(=O)OCC(=O)N2C(C)CCCC2C)cc1 (stereo not drawn)	-8.2
CCCNC(=O)C(Cc1ccccc1)NC(=O)c1ccc(C(F)(F)F)cc1 (stereo not drawn)	-1.4
C[C@@H](NC(=O)c1nc[nH]c1C(=O)N(C)Cc1ccccc1)c1ccccc1	3.1
CC1CC(C)(C)CC2(C1)NC(=O)N(CC(=O)Nc1cc([N+](=O)[O-])ccc1F)C2=O (stereo not drawn)	-2.4
CN(Cc1cccc(F)c1)C(=O)c1ccc(S(=O)(=O)N2CCOCC2)cc1	0.7
Cc1cc(C)c(NC(=O)CN(C)C(=O)CCC(=O)c2ccc(C)s2)c(C)c1	0.8
CN(C)c1ccc(C(=O)OCC(=O)c2ccc[nH]2)cc1	3.3
Cc1ccccc1CSc1nc2ccccc2c(=O)n1C	0.5
Cc1occc1-c1nnc(SCC(=O)NC2CCCCC2)o1	2.0
O=C(COC(=O)C1C2CC3OC(=O)C1C3C2)Nc1cccc(Cl)c1 (stereo not drawn)	-5.2
O=C(CCc1nc(-c2ccccc2)no1)NC1CCCCCC1	-3.4
COC(=O)c1cc(C(=O)OCC(=O)Nc2ccc(N3CCOCC3)cc2)cc([N+](=O)[O-])c1	-2.4
O=C(/C=C/c1cccc(F)c1)OCC(=O)N1CCCC1	-8.4
Cc1nc(NCCc2ccc(F)cc2)c2nnn(Cc3ccccc3)c2n1	-13.3
COC(=O)[C@]1(Cc2ccccc2)N[C@H](CN(C)S(=O)(=O)c2ccc(C)cc2)[C@@H]2C(=O)N(Cc3ccccc3)C(=O)[C@@H]21	-3.5
COc1ccc(S(=O)(=O)N2CCCCC2)cc1NC(=O)c1ccc(C)cc1	1.5
COc1cccc(CC(=O)OCc2csc(CC(=O)Nc3ccccc3C)n2)c1	-8.5
O=C(COC(=O)c1ccc(OC(F)F)cc1)NCCC1=CCCCC1	2.1
CC(Sc1nnnn1C)C(=O)Nc1ncc(Cl)cc1Cl (stereo not drawn)	-6.0
CC1Nc2ccc(C(=O)NC3CCCCC3)cc2NC1=O (stereo not drawn)	-8.0
O=Cc1cccc(OC(=O)Nc2ccccc2)c1	-2.4
O=C(NCCCn1ccnc1)C1CCCN(S(=O)(=O)c2ccc(F)cc2)C1 (stereo not drawn)	-4.7
CC1(C)NC(=O)N(CC(=O)N2CCN(c3cccc(Cl)c3)CC2)C1=O	-2.3
CC(C)c1cccc(C(C)C)c1OC(=O)[C@H]1OC(c2ccc(Br)cc2)=C[C@@H]1c1ccc(Br)cc1	24.9
O=C(CCCc1ccccc1)N1CCN(C2CCCCC2)CC1	-10.3
O=C1N[C@@H](Cc2ccccc2)COC(=O)[C@H](Cc2ccc(F)cc2)C/C=C\C[C@@H]1CC(=O)N(CCO)Cc1ccccc1	-3.1
O=C(NCc1ccc2c(c1)OCO2)c1c(-c2ccsc2)sc2ccccc12	1.3
Cc1cccc(NC(=O)c2nc[nH]c2C(=O)NCCCCNC(=O)c2[nH]cnc2C(=O)Nc2cccc(C)c2)c1	-0.6
CCOC(=O)c1ccc(/[N+]([O-])=C/c2ccccc2)cc1	?
COC(=O)C1=C(c2ccc(OCc3ccccc3)cc2)C[C@@H]2CC[C@H]1N2C(=O)NCCCc1ccccc1	5.8
CCOC(=O)c1cc(-c2ccccc2C)nn1Cc1cc(C)no1	11.7
Cc1cnc(C(=O)OCC(=O)Nc2c(Cl)cc(Cl)cc2Cl)cn1	-3.3
CC1CCCC(NC(=O)CSc2nnc(-c3cccnc3)n2N)C1C (stereo not drawn)	-4.2

As entered above:
CC1(C)NC(=O)N(CC(=O)N2CCN(c3cccc(Cl)c3)CC2)C1=O in Mtb betalactam shows -2.3
CC1CCCC(NC(=O)CSc2nnc(-c3cccnc3)n2N)C1C (stereo not drawn) in Mtb betalactam shows -4.2
COc1ccc(S(=O)(=O)N2CCCCC2)cc1NC(=O)c1ccc(C)cc1 in Mtb betalactam shows 1.5
O=C(COC(=O)c1ccc(OC(F)F)cc1)NCCC1=CCCCC1 in Mtb betalactam shows 2.1

(next part)
SMILES	Mtb betalactam
Cc1ccc(S(=O)(=O)N2CCN(C(=O)COC(=O)/C=C/c3ccccc3)CC2)c(C)c1	7.6
Cc1cnc(C(=O)OCC(=O)N(CC(C)C)C2CCS(=O)(=O)C2)cn1 (stereo not drawn)	0.5
CCN(C(=O)COC(=O)c1ccc(SC)cc1OC)C1CCS(=O)(=O)C1 (stereo not drawn)	3.0
COc1ccc([C@@H]2CC=C(C(=O)O)[C@H](c3cccc(Cl)c3)N2S(=O)(=O)c2ccccc2C)cc1	3.4
COc1ccc([C@@H](OC)[C@@]2(Cc3ccc(O)cc3)N=C(N)N(C)C2=O)cc1	2.2
CC(Oc1cccc([N+](=O)[O-])c1)C(=O)NCCC1=CCCCC1 (stereo not drawn)	-0.8
Cn1cncc1C#Cc1c(C=O)n(C)c2ccccc12	76.7
Cc1ccc(NC(=O)COC(=O)CN2C(=O)C3CCCCC3C2=O)cc1C (stereo not drawn)	0.9
Cc1ccnc2nc(C(=O)OC(C)C(=O)NCc3ccccc3)nn12 (stereo not drawn)	0.3
CCN(C(=O)C(C)Sc1ccc(S(=O)(=O)N2CCN(C)CC2)cn1)c1ccccc1 (stereo not drawn)	16.6
Cn1cccc1C(=O)OCC(=O)N1CCc2ccccc21	1.4
C/C(=N\Nc1cc(N2CCOCC2)nc(C)n1)c1ccc(F)cc1	-6.4
COC(=O)C1=C(c2ccc(F)cc2OCc2ccccc2)C[C@@H]2CC[C@H]1N2C(=O)NCc1ccccc1	7.0
CCOC(=O)C(Cc1ccc(NC(C)=O)cc1)N1C(=O)c2ccccc2C1=O (stereo not drawn)	-4.2
CC1CN(CCCCOc2ccc(Cl)c3ccccc23)CC(C)O1 (stereo not drawn)	8.4
CN(CC(=O)Nc1ccc(F)cc1[N+](=O)[O-])C1CCS(=O)(=O)C1 (stereo not drawn)	2.1
CCC/C(C(=O)NCCO)=C1/c2ccccc2C(=O)N1c1ccccc1	-9.2
CCC(=O)OC1(C(=O)CCl)[C@@H](C)C[C@H]2[C@@H]3CCC4=CC(=O)C=C[C@]4(C)[C@@]3(F)[C@@H](O)C[C@@]21C (stereo partly drawn)	-1.4

In the list so far, these contain a cyano group:
SMILES	Mtb betalactam
COC(=O)C1=C(c2cccc(C#N)c2)C[C@@H]2CC[C@H]1N2C(=O)NCc1ccco1	-3.6
CCOc1ccccc1N1CC(C(=O)N2CCN(Cc3ccc(C#N)cc3)CC2)CC1=O (stereo not drawn)	0.1

A portion of the library (hit frequency here may not be typical).
